RGS16-Gao HTS: RGS16-Galphao interaction regulator (human); bead-based flow cytometry RGS16-Galphao binding, fluorescence; actives lie on both sides; O15492+P09471; hit rate 0.38% among 220,000; binding response (% of control), % at 10 µM;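 active = below 25% or above 175%, edge rows of some plates excepted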;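 note: Galphao activated by GDP with aluminum fluoride before binding; 100% = wells without compound and 0% = beads without RGS; some results beyond the cut were filed as inactive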
Target sequence (O15492 whole entry, looked up): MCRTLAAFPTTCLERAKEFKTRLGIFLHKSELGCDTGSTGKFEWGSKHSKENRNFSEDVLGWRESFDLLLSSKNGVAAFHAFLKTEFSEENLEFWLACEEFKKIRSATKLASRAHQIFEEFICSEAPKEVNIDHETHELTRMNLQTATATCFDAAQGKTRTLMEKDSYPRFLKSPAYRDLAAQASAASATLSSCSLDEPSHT
Target sequence (P09471 whole entry, looked up): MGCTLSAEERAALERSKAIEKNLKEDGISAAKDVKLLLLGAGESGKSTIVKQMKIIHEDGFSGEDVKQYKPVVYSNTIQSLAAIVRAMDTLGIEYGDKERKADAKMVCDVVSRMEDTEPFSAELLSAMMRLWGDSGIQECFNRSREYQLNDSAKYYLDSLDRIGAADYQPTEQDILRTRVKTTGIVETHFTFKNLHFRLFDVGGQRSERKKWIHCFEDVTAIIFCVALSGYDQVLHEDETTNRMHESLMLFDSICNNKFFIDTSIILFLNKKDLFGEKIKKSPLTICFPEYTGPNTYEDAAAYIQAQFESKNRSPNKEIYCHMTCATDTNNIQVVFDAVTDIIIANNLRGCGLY
INS promoter inh: TRM-6 insulin promoter activity inhibition | inhibition, % at 2 µM | TRM-6 cells (human fetal islet line), insulin promoter-eGFP reporter, imaging; reporter expression induced with tamoxifen | hit rate 0.9% among 130,000;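 active = inhibition above the mean plus 3 SD, with well images judged a real hit on visual review, cut at about 60% in these data, passing the limit was not always enough; inconclusive = inhibition over the cutoff but images rejected on review; inactive = inhibition not above the cutoff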
PKD1 kinase inh: blocks activity of human protein kinase D1; hit rate 0.056% among 200,000; inhibition, %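 (about 10 µM by stock and volumes)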; AID 797; Q15139; PKD1 kinase fluorescence polarization assay;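 active = inhibition of 50% or more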;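 note: controls were vehicle for no effect and a reference inhibitor for full effect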
HSV augment: HSV replication enhancement | HSV replication augmentation in cells, fold increase | AID 1956 | maximum fold increase | hit rate 0.005% among 220,000;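 active = peak rise of 1.5-fold or more in the series; inconclusive = self-fluorescent or not available for retest; tested in PC3 cells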;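 note: first round at 10 µM; read as green reporter fluorescence; hits show the peak of a series up to 25 µM; 1 = signal of infected wells without compound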
GALR2 ag: agonists of human galanin receptor 2 (GALR2); GALR2-expressing cells, agonist activation read-out; activation, %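 (tested at 5 µM)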; hit rate 0.48% among 140,000;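 active = above mean plus 3 SD of all compounds, about 5% in these data, not always enough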;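 note: 0% = vehicle buffer wells and 100% = reference agonist at full effect; tested in CHO reporter cells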
Target sequence (O43603 whole entry, looked up): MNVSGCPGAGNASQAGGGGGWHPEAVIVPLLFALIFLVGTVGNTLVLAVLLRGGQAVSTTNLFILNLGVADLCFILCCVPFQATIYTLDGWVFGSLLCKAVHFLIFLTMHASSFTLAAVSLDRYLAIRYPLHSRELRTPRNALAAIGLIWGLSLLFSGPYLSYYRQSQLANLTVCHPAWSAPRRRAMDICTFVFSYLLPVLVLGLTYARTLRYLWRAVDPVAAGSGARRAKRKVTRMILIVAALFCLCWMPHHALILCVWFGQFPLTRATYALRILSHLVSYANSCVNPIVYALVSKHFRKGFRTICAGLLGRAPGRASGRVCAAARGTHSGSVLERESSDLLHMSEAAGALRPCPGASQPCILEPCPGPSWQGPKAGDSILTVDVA
INS promoter inh cell count: also measured in INS promoter inh; calls as there; normalized cell count, %; measured here: cell count, toxicity; reference of the scale not given here;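 cells exposed to compound for 48 h; stained nuclei by imaging scaled within each plate; lower means fewer cells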
HSV augment primary fold: second read-out of HSV augment, no call of its own (marks repeat the call); fold increase; compound at 10 µM; measured here: primary screen fold increase 10 uM; tested in PC3 cells;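 GFP signal in the first replicate; 1 = infected wells without compound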
* marks the source's active call; other numbers are inactive results; i = inactive; ? = inconclusive; · = no result given.

SMILES | RGS16-Gao HTS | INS promoter inh | INS promoter inh cell count | PKD1 kinase inh | HSV augment | HSV augment primary fold | GALR2 ag
CCC(=O)N1CCN(c2cc(N3CCN(C)CC3)c(F)cc2[N+](=O)[O-])CC1 | 100 | 13 | 106 | 4 | i | 0.91 | -0.9
Nn1cc(-c2ccccc2)nc1SCC(=O)NCC1CCCO1 (centres undefined) | 105 | 20 | 137 | -7 | i | 0.95 | ·
CC[C@H](C)[C@H](NC(=O)[C@H](Cc1ccc(O)cc1)NC(=O)[C@@H](N)C(C)C)C(=O)N[C@@H](Cc1cnc[nH]1)C(=O)N1CCC[C@H]1C(=O)N[C@@H](Cc1ccccc1)C(=O)O | 98 | -50 | 44 | -17 | i | 0.84 | -1.1
CCOC(=O)c1cnc(SCC(=O)OC)nc1N | 102 | 18 | 130 | -3 | i | 0.9 | ·
C1=CC2c3ccccc3NC(c3ccncc3)C2C1 (centres undefined) | 62 | · | · | -9 | i | 0.73 | -1.2
O=C(NCc1ccco1)C1CC(c2cc(C(F)(F)F)cc(C(F)(F)F)c2)=NO1 (centres undefined) | 90 | · | · | · | i | 0.58 | ·
COc1ccc(C(C)=O)cc1CN1C(=O)NC(CC(C)C)C1=O (centres undefined) | 100 | 25 | 111 | 3 | i | 0.94 | ·
CCS(=O)(=O)c1ccc2oc(SCC(=O)Nc3ccc(OC)c(OC)c3)nc2c1 | 108 | -36 | 85 | 2 | i | 0.92 | ·
COc1ccc(N(C(=O)CCC(=O)Nc2cc(C)on2)C(C(=O)NC2CCCC2)c2ccco2)cc1 (centres undefined) | 97 | · | · | -7 | i | 0.94 | ·
CCC(C)n1c(SCC(=O)NCc2ccco2)nnc1-c1cccc(S(=O)(=O)N2CCOCC2)c1 (centres undefined) | 95 | 22 | 116 | 0 | i | 1.1 | -3.2
CCOc1cccc(SCc2noc(C(=O)NCCOC)c2C(=O)O)c1 | 102 | · | · | -17 | i | 1.1 | 59*
Cc1cc(C)c(C)c(S(=O)(=O)NC(C(=O)O)C(C)C)c1C (centres undefined) | 101 | -50 | 129 | 5 | i | 1 | ·

Shown as comma-separated lines: 3 of the compounds above.
SMILES,RGS16-Gao HTS,INS promoter inh,INS promoter inh cell count,PKD1 kinase inh,HSV augment,HSV augment primary fold,GALR2 ag
Nn1cc(-c2ccccc2)nc1SCC(=O)NCC1CCCO1 (centres undefined),105,20,137,-7,i,0.95,·
CC[C@H](C)[C@H](NC(=O)[C@H](Cc1ccc(O)cc1)NC(=O)[C@@H](N)C(C)C)C(=O)N[C@@H](Cc1cnc[nH]1)C(=O)N1CCC[C@H]1C(=O)N[C@@H](Cc1ccccc1)C(=O)O,98,-50,44,-17,i,0.84,-1.1
CCOC(=O)c1cnc(SCC(=O)OC)nc1N,102,18,130,-3,i,0.9,·

New compounds follow.
SMILES | RGS16-Gao HTS | INS promoter inh | INS promoter inh cell count | PKD1 kinase inh | HSV augment | HSV augment primary fold | GALR2 ag
COc1ccnc(Oc2ccc(F)cc2)c1C(=O)N/C=N/OCc1c(Cl)cccc1Cl | 101 | 3 | 113 | -4 | i | 1 | -0.7
CCCCn1c(NC(=O)c2ccccc2)nc2ccccc21 | 100 | · | · | -11 | i | 0.96 | -0.4
COc1ccc([C@@H]2C[C@H](c3ccccc3)Oc3cc(C)cc(C)c32)cc1 | 101 | · | · | · | i | 1.1 | ·
COc1ccc(N2CCN(C(=O)CSc3nnc(-c4ccco4)n3C)CC2)cc1 | 96 | · | · | 5 | i | 0.95 | ·
O=C(NNc1ccc(Cl)cc1)c1c(F)cccc1Cl | 97 | · | · | · | i | 0.97 | ·
O=C1CSC(=S)N1Cc1cccnc1 | 101 | 25 | 99 | 5 | i | 1.2 | -1.6
O=[N+]([O-])c1ccc(Oc2cccnc2)nc1 | 99 | · | · | · | i | 1.1 | ·
CC(=O)NCCc1ccc(O)cc1 | 119 | · | · | · | i | 0.84 | ·
O=C(Nc1ccccc1Cl)c1ccc2nsnc2c1 | 100 | -22 | 96 | -2 | i | 0.99 | ·
C/C(=N\NC(=O)c1c(Cl)cnn1C)c1cccc(NC(=O)COc2ccccc2)c1 | 99 | 2 | 112 | -7 | i | 0.99 | -0.9
CCc1nc(SCC(=O)NNC(=O)c2ccc(OC)cc2)c2ccccc2n1 | 149 | -50 | 71 | 0 | i | 0.97 | ·
Cc1ccc(-c2nn(-c3ccccc3)cc2NC(=O)CCl)cc1 | 100 | · | · | -6 | i | 0.8 | ·
O=C(Nc1ccncc1)Nc1ccc(F)c(Cl)c1 | 97 | · | · | 1 | i | 1.1 | ·
O=C(CN1C(=O)CCC1=O)Nc1ccc2c3c(cccc13)CC2 | 102 | · | · | -2 | i | 0.94 | -0.9
Cc1ccc(OC(=O)CCC(=O)Nc2ccc(S(=O)(=O)Nc3cc(C)on3)cc2)cc1 | 105 | 49 | 153 | -1 | i | 0.9 | -1.8
COc1ccc([N+](=O)[O-])cc1NC(=O)c1ccccc1N(C)S(C)(=O)=O | 101 | · | · | -5 | i | 1 | ·
COCCCn1nnnc1SCC(=O)N1c2ccccc2CC1C (centres undefined) | 102 | · | · | -9 | i | 0.97 | ·
CCN(CC)S(=O)(=O)c1ccc(N2CCOCC2)c(NC(=O)c2ccc(C#N)cc2)c1 | 98 | · | · | -4 | i | 0.93 | ·
C/C(=N\NC(=O)c1nn(C)c(C)c1Br)c1ccc(NC(=O)c2ccccc2F)cc1 | 103 | 21 | 115 | 10 | i | 0.91 | -1.7
c1ccc(Cn2nnnc2C(c2cccs2)N2CCOCC2)cc1 (centres undefined) | 98 | 29 | 106 | 10 | i | 0.97 | -3.2
CCCCN(C(=O)CC(c1ccccc1)c1ccccc1)c1c(N)n(CCC)c(=O)[nH]c1=O | 101 | · | · | 5 | ? | · | 0.4
O=C1/C(=C/C=C/c2ccco2)SC(=S)N1NS(=O)(=O)c1ccccc1 | 101 | · | · | · | i | 0.9 | ·
CCn1c(C)[n+](Cc2ccccc2)c2ccc(Cl)cc21 | 96 | 26 | 88 | -1 | i | 1 | ·
Cc1ccc(S(=O)(=O)N2CCCC(C(=O)N(Cc3cccs3)C3CC3)C2)cc1 (centres undefined) | 106 | · | · | -4 | i | 1 | -0.5

Quoted at random: 3 entries already listed, in no set order.
SMILES | RGS16-Gao HTS | INS promoter inh | INS promoter inh cell count | PKD1 kinase inh | HSV augment | HSV augment primary fold | GALR2 ag
CCN(CC)S(=O)(=O)c1ccc(N2CCOCC2)c(NC(=O)c2ccc(C#N)cc2)c1 | 98 | · | · | -4 | i | 0.93 | ·
COCCCn1nnnc1SCC(=O)N1c2ccccc2CC1C (centres undefined) | 102 | · | · | -9 | i | 0.97 | ·
CCCCN(C(=O)CC(c1ccccc1)c1ccccc1)c1c(N)n(CCC)c(=O)[nH]c1=O | 101 | · | · | 5 | ? | · | 0.4

(continued)
SMILES | RGS16-Gao HTS | INS promoter inh | INS promoter inh cell count | PKD1 kinase inh | HSV augment | HSV augment primary fold | GALR2 ag
CN1CCC(=NNC(=O)c2ccc(N(Cc3ccc(Cl)cc3)S(C)(=O)=O)cc2)CC1 | 113 | 7 | 99 | -2 | i | 0.93 | 1.0
Cc1nn(CCCC(=O)Nc2sc3c(c2C#N)CCC3)c(C)c1[N+](=O)[O-] | 97 | · | · | 12 | i | 0.8 | -0.4
O=C(O)c1cc(=O)cc(C(=O)O)[nH]1 | 103 | 31 | 103 | -5 | i | 1.2 | -2.1
CCOC(=O)C1=C(C)NC(C)=C(C(=O)OCC)C1c1ccc(Br)o1 | 99 | -3 | 117 | 0 | i | 0.82 | -2.0
COC(=O)C(C(=O)OC)C(C(C)C)C(C(=O)OC)C(=O)OC | 108 | -25 | 111 | -2 | i | 1 | -5.2
O=C(NCCc1ccccc1)C1c2ccccc2C(=O)N1Cc1cccs1 (centres undefined) | 101 | -50 | 77 | 0 | i | 0.97 | ·
CCOC(=O)c1c(NC(=O)CN2CCCc3ccccc32)sc(C(C)=O)c1C | 100 | · | · | 3 | i | 1.1 | -1.3
CN(C)c1ccc(C(=O)OCC(=O)N2CCOCC2)cc1 | 101 | · | · | 1 | i | 0.91 | ·
O=C(CSc1ncnc2c1cnn2CCc1ccccc1)Nc1cccc(C(F)(F)F)c1 | 105 | -9 | 93 | -2 | i | 0.75 | -2.6
CC(=O)NS(=O)(=O)c1ccc(NC(=O)/C=C/c2ccccc2Cl)cc1 | 100 | 19 | 122 | -6 | i | 1 | -4.6
COc1ccccc1C(=O)Nc1ccc(S(=O)(=O)NC2=NCCCCC2)cc1 | 98 | 29 | 58 | 2 | i | 0.92 | ·
CCOC(=O)c1cc2c(=O)n3ccccc3nc2n(CCOC)c1=NC(=O)c1c(-c2c(F)cccc2Cl)noc1C | 108 | -67 | 67 | -5 | i | 1 | ·
Nn1c(Cc2cccc3ccccc23)nnc1SCn1nnc2ccccc2c1=O | 102 | -400 | 121 | -5 | i | 0.97 | -0.3
COc1cc(/C=C2\SC(=S)N(CCC(=O)Nc3ccccc3)C2=O)cc(OC)c1OC | 102 | · | · | -4 | i | 0.82 | ·
CCOC(=O)C1C(c2ccccc2)NC(=S)NC1(C)O (centres undefined) | 104 | · | · | 4 | i | 0.9 | ·
COc1ccc(-c2cc(C(F)(F)F)c(C#N)c(=O)[nH]2)cc1 | 98 | · | · | · | i | 0.91 | ·
NC(=O)c1cccnc1Nc1cccc([N+](=O)[O-])c1 | 98 | · | · | -7 | i | 0.97 | ·
CC(C)(C)NC(=O)c1ccc2c3c(cccc13)CC2 | 101 | · | · | -2 | i | 0.88 | ·
CCOC(=O)N1CCN(C(=O)CSc2ccc3nnc(-c4ccncc4)n3n2)CC1 | 115 | 0 | 170 | 1 | i | 0.97 | ·
COc1ccc(CC(=O)N(C)C2CCCCC2)cc1S(=O)(=O)N1CCOCC1 | 105 | -20 | 160 | -8 | i | 1.1 | ·
CC(=O)N1Cc2cc([N+](=O)[O-])ccc2Oc2ccccc21 | 102 | · | · | 1 | i | 0.8 | ·
O=C(Nc1ccc(S(=O)(=O)NCC2CCCO2)cc1)c1ccccc1 (centres undefined) | 112 | · | · | 9 | i | 1 | ·
O=C(c1cccc(Cl)c1)N1CCC(=O)N(C(COCc2cccc(Cl)c2)Cc2ccccc2)CC1 (centres undefined) | 105 | 20 | 116 | -13 | i | 0.79 | -1.2
Cc1cccc(Nc2nc(N)c([N+](=O)[O-])c(NCCO)n2)c1 | 90 | · | · | · | i | 0.92 | ·
COc1ccc(Oc2ccc3c(C(F)(F)F)cc(C(F)(F)F)nc3n2)cc1 | 98 | 3 | 107 | 2 | i | 0.93 | -1.3
O=C(OCC(=O)N1CCc2ccccc21)c1c2c(nc3ccccc13)CCCCC2 | 102 | 9 | 113 | 4 | i | 0.73 | -0.9
COc1ccc(C(=O)NC(=S)Nc2ccc(N3CCCC3)cc2)cc1OC | 102 | -21 | 132 | 7 | i | 1.1 | -0.1
Cn1c(N)c(S(=O)(=O)c2ccc(Br)cc2)c2nc3ccccc3nc21 | 89 | · | · | -12 | i | 0.81 | -0.1
CCOC(=O)N1CCN(C(=O)CSc2nnc(Cc3ccccc3)o2)CC1 | 100 | 29 | 65 | 0 | i | 1.2 | 0.0
Cc1cc(C)c(C)c(C(=O)COC(=O)CNC(=O)CN2C(=O)c3ccccc3C2=O)c1C | 68 | 37 | 76 | 3 | i | 0.93 | -2.2
O=C(Nc1cccc2ncccc12)c1ccc(Br)c([N+](=O)[O-])c1 | 246 | 0 | 74 | -4 | i | 0.96 | ·
CCCCC1(CO)C(=O)N(c2ccccc2)N(c2ccccc2)C1=O | 90 | · | · | · | i | 1.2 | ·
N=c1c2c3c(sc2ncn1Cc1ccco1)CCCCC3 | 188 | -3 | 64 | 5 | i | 0.99 | -1.0
Cc1cccc(C)c1NC(=O)CSc1nnc([C@H](C)NC(=O)OC(C)(C)C)o1 | 106 | · | · | 10 | i | 1.1 | -1.5
CCN1CCCC1CNC(=O)CCc1nnc(CCC2CCCCC2)o1 (centres undefined) | 102 | · | · | -10 | i | 1 | ·
CN(C)CCCN(C(=O)c1ccc(N2C(=O)CCC2=O)cc1)c1nc2c(F)cccc2s1 | 99 | 67 | 119 | 4 | i | 0.91 | ·
Cc1ccc(C(=O)NNC(=O)CSc2nc(N)cc(N)n2)cc1 | 100 | 23 | 91 | -14 | i | 1 | -1.2
CCN1CCN(C(=O)/C=C/c2ccc3c(c2)OCO3)CC1 | 117 | 14 | 100 | -1 | i | 1 | ·
O=C(NCC1CCCO1)C1CCN(C2CCN(C(=O)C3CCCCC3)CC2)CC1 (centres undefined) | 105 | · | · | -4 | i | 1.1 | ·
CCn1nc(C)c(Br)c1-c1nc(CS(=O)(=O)c2ccc(F)cc2)no1 | 101 | · | · | · | i | 1.1 | ·
Cn1c(=O)c2c(nc(SCc3cccnc3)n2Cc2ccc(F)cc2)n(C)c1=O | 98 | -14 | 171 | 0 | i | 0.64 | 2.2
O=C(CSc1nc2ccccc2o1)NC1CCCC1 | 98 | -19 | 86 | 7 | i | 1 | ·

Screening data as filed in PubChem BioAssay.
